Mtb H37Rv – M. tuberculosis H37Rv growth inhibitors, H37Rv strain (AID 1626); inhibition, % at 10 µM, or IC50 in µM where a hit was titrated; M. tuberculosis H37Rv growth inhibition; higher % means a stronger effect; 220,000 compounds, 0.95% hits;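 active = confirmed in a dose series; inconclusive = inhibition above 80% but not taken into the dose series; inactive = below 80% or under 30% at every dose of the series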;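 also: bacteria incubated seven days before Alamar blue readout; 0% = bacteria only wells and 100% = bacteria with antibiotic wells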
RecA splice inh – Mtb RecA intein splicing inhibitors, primary screen, biochemical, fluorescence, HTS | cell-free RecA intein splicing | inhibition, %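 (about 9 µM by stock and volumes)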 | 290,000 compounds, 0.75% hits; in the data active = inhibition above about 30%; inconclusive = no clear call, values can overlap the other calls;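 also: 0% = vehicle wells and 100% = reference inhibitor control wells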
Target sequence (P9WHJ3 whole entry, looked up, canonical isoform): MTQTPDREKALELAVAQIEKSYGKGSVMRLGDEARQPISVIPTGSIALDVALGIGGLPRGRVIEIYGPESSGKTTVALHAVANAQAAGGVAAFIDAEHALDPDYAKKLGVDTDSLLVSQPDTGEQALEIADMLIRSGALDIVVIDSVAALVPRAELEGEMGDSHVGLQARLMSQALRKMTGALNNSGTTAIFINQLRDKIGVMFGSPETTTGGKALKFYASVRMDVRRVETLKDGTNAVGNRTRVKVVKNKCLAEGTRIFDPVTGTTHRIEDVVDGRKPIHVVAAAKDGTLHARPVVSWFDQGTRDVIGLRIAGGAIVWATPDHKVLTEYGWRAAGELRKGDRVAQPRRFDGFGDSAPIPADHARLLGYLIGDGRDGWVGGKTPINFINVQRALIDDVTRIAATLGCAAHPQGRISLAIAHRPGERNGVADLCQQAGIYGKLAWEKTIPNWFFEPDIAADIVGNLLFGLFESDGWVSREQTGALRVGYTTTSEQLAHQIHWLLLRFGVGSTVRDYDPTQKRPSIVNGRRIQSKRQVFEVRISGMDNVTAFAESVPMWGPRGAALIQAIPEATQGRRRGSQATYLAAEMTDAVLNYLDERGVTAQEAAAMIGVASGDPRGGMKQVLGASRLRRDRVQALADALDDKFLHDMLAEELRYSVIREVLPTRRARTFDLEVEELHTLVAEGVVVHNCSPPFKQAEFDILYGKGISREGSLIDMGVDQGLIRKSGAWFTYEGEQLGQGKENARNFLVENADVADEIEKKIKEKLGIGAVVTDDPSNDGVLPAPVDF
Arbovirus inh – antivirals against arbovirus infection, primary screen, cell-based, full library, 10K replicate subset | arbovirus infection cell-based antiviral screen | inhibition, % at 10 µM | 200,000 compounds, 0.37% hits;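 active = inhibition from about 30%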;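 also: bluetongue infection of BSR cells; cell survival read as ATP light after 72 h; 0% = infected wells without compound and 100% = uninfected wells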
YopH PTP inh – YopH tyrosine phosphatase inhibitors, primary screen, biochemical, fluorescence Ex485/Em525 | YopH tyrosine phosphatase [Yersinia enterocolitica] | inhibition, %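 (about 10 µM by stock and volumes)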 | 140,000 compounds, 0.16% hits | AID 898, 2007;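 active = inhibition of 50% or more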;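 also: controls were vehicle for no effect and minimum signal wells for full effect; inactives centre near -20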
Mtb bLac sens – beta-lactam sensitization of Mtb H37Rv, H37Rv | M. tuberculosis H37Rv growth with meropenem, percent inhibition; hits of this screen are not shown here | inhibition, % at 25 µM | 330,000 compounds, 0.27% hits | AID 434955, 2010;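 active = about 74% or more and at least 40 points above the plate without the antibiotic, then above 30% in a dose series; inconclusive = first-round hits that could not be retested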;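 also: growth measured after seven days incubation then overnight dye step; 0% = bacteria only wells and 100% = bacteria with antibiotic; twin plates without the antibiotic show which effects depend on it; some results filed as inactive read as strong as hits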
Arbovirus inh repeat – recorded beside Arbovirus inh, whose call it bears; inhibition, %; measured here: 10K subset replicate screen; many hits read low in the repeat;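 first of two repeat runs on a subset; 0% = infected and 100% = uninfected wells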
Numbers without * were called inactive; ? = inconclusive; / = not tested or not shown. Not all compounds are listed (hit frequency here may not be typical).

SMILES	Mtb H37Rv	RecA splice inh	Arbovirus inh	YopH PTP inh	Mtb bLac sens	others
O=C(NCC1CCCO1)c1nnc(Cc2ccc(F)cc2)o1 (centres undefined)	/	1.9	8	-16	-3	Arbovirus inh repeat=5
O=S(=O)(NCc1cn2ccccc2n1)c1ccccc1F	-2%	-3.4	/	/	-2
COc1ccc(OCCC(=O)OCC(=O)Nc2cccc(S(=O)(=O)N3CCOCC3)c2)cc1	-6%	-2.1	-6	/	1
CCOC(=O)N1CCN(C(=O)c2cn(CCOC)c(=O)c3c2c2ccccc2n3C)CC1	-2%	-1.6	4	-11	/
Cc1ccc(C(=O)CC(C(=O)O)c2cn(CCC#N)c3ccccc23)cc1 (centres undefined)	-16%	/	-3	-32	4	Arbovirus inh repeat=4
Cc1cc(=O)oc2c3c(cc(OCC(=O)NCC(=O)N[C@H](C(=O)O)C(C)C)c12)OC(C)(C)CC3	/	-1.4	/	/	-3
Cc1[nH]n(-c2ccccc2)c(=O)c1/C=C1/C=c2ccccc2=N1	-5%	35*	-3	/	/
CC1CCN(c2ccc(C(=O)O)cc2NS(=O)(=O)c2ccc(Br)cc2)CC1	-1%	4.7	2	-16	-4
CNC(=O)Nc1ccc2nc(C)oc2c1	-2%	1.1	/	/	-3
N#Cc1ccc(C23CC4(C2)[C@H](CN(CC2CCCCC2)[C@@H]4c2ccccc2)C3c2ccc(C(F)(F)F)cc2)cc1 (some centres undefined)	5%	7.6	/	/	/
CCCCN1C(=O)N(C)C2NC(=O)NC21 (centres undefined)	-10%	-1.3	1	-12	-4
Cc1nn(CCCC(=O)Nc2cccnc2)c(C)c1[N+](=O)[O-]	0%	2.5	2	/	-8
Cc1cc(C)n2cc(CSc3nnnn3-c3ccc(Cl)cc3)nc2n1	-1%	/	5	-23	-4
CCC(C(=O)NC(C)(C)C)N(Cc1ccco1)C(=O)Cn1nnc(-c2ccc(F)cc2)n1 (centres undefined)	-1%	0.9	-3	/	5
O=C(NC1CCCC1)C(c1ccccc1)N(Cc1ccc2c(c1)OCO2)C(=O)Cc1cccs1 (centres undefined)	2%	1.9	-11	-23	3
CCC(C)(C)NC(=O)CN(C(=O)c1ccc(N2CCCC2)nc1)c1ccc(F)cc1	/	2.9	/	/	6
CC(=O)CSc1nnc(CSc2ncccn2)n1C1CCCCC1	2%	-1.9	7	3	15
CC(CCc1ccccc1)N1CCN(C)CC1 (centres undefined)	/	-0.8	/	/	-1
CC(=O)c1ccc(N2CCN(C(=O)c3ccc(NC4=NC5CS(=O)(=O)CC5S4)cc3)CC2)cc1 (centres undefined)	/	-1.5	/	/	-2
Cc1cccc(CCNCc2cc3ccc(C)cc3[nH]c2=O)c1	/	2.4	/	/	-13
NC(=O)CC(NSc1ccccc1[N+](=O)[O-])C(=O)O (centres undefined)	-12%	-2.8	-4	/	0
Cc1ccc(Cn2c(CCCO)nc3ccccc32)cc1	/	2.7	/	/	-1
CN(C)c1ccc(C(=S)N2CCN(C(=S)Nc3ccc(Cl)cc3)CC2)cc1	2%	4.9	1	/	-8
Cc1cccc(N(C)S(=O)(=O)c2ccc3[nH]cc(C(=O)N4CCOCC4)c(=O)c3c2)c1	-10%	-0.3	-1	-46	-9
CC1(C)CC(=O)C2=C(C1)Nc1ccccc1NC2c1cc(Cl)ccc1O (centres undefined)	/	2.9	/	/	0
COc1ccc2nc(NC(=O)c3ccc(-n4nc(C)cc4C)cc3)sc2c1	2%	1.6	-7	-46	-8
CCC(C)OC(=O)C(C)Oc1ccc(-c2ccccc2)cc1 (centres undefined)	17%	9.9	-6	2	100
CCC(CC)C(=O)c1c[nH]c(C(=O)O)c1	-1%	-1.5	-4	/	4
COCCCNC(=O)CSc1nc2sc(C(=O)OC)c(C)c2c(=O)n1N	8%	0.6	-5	/	2
Cc1nnc(SCCn2c(N3CCCCC3)nc3c2c(=O)[nH]c(=O)n3C)s1	-2%	2.2	6	-28	-4

Five entries from above, ordered by number of heavy atoms, descending:
SMILES	Mtb H37Rv	RecA splice inh	Arbovirus inh	YopH PTP inh	Mtb bLac sens	others
CN(C)c1ccc(C(=S)N2CCN(C(=S)Nc3ccc(Cl)cc3)CC2)cc1	2%	4.9	1	/	-8
CC(=O)CSc1nnc(CSc2ncccn2)n1C1CCCCC1	2%	-1.9	7	3	15
CCC(C)OC(=O)C(C)Oc1ccc(-c2ccccc2)cc1 (centres undefined)	17%	9.9	-6	2	100
Cc1ccc(Cn2c(CCCO)nc3ccccc32)cc1	/	2.7	/	/	-1
NC(=O)CC(NSc1ccccc1[N+](=O)[O-])C(=O)O (centres undefined)	-12%	-2.8	-4	/	0

Further compounds:
SMILES	Mtb H37Rv	RecA splice inh	Arbovirus inh	YopH PTP inh	Mtb bLac sens	others
Cc1ccc(C)c(C(C)NC(=O)c2ccncc2)c1 (centres undefined)	/	-1.4	/	/	2
CCOC(=O)C1(Cc2cccc(OC)c2)CCN(C/C=C/c2ccccc2)CC1	-3%	4.1	21	/	12
N#Cc1cccc(Oc2ccc(-c3cnc4ccccc4n3)cc2)c1C#N	-7%	2.9	-12	-6	4
Cc1cccc(-c2oc3ccccc3c2C#CCCCCO)c1	/	2.8	/	/	84
COCCCNC(=S)NNC(=O)c1cccnc1	1%	-0.8	7	-19	-27
CCOC(=O)Cn1c(=O)oc2cc(S(=O)(=O)NC(C)c3ccccc3)ccc21 (centres undefined)	6%	-1.1	-2	12	-8
O=C(NCCCNC(=O)c1cccs1)c1cccs1	2%	0.1	1	-45	-5	Arbovirus inh repeat=2
Clc1cccc(CNCCCSc2ncccn2)c1Cl	/	-0.7	/	/	1
Cc1ccccc1CC1(CO)CCCN(C(=O)c2ccccc2Cl)C1 (centres undefined)	-6%	8.0	12	/	5
O=C(NCc1ccc2c(c1)OCO2)c1nnc(Cc2ccc(Cl)cc2)o1	/	0.4	-5	-35	3	Arbovirus inh repeat=-5
O=C(Nc1ccc(NS(=O)(=O)c2ccccc2)cc1)c1ccccc1	/	1.6	/	/	-2
CCCCn1c(SCC(=O)N2c3ccccc3CCc3ccccc32)nc2c1c(=O)n(C)c(=O)n2C	6%	-0.5	-10	-6	-1
CC1(C)S[C@@H]2[C@H](NC(=O)C(C(=O)O)c3ccccc3)C(=O)N2[C@H]1C(=O)O (some centres undefined)	/	0.8	-1	-44	1
Cc1ccc(N(CC(=O)NC2CCCC2)C(=O)CCC(=O)Nc2nc(C)cs2)cc1	/	1.0	/	/	5
COCCOCCn1c(/C=C/c2ccccc2)nc2ccccc21	11%	0.7	-1	/	-1

Entries above containing fluorine:
SMILES	Mtb H37Rv	RecA splice inh	Arbovirus inh	YopH PTP inh	Mtb bLac sens	others
O=C(NCC1CCCO1)c1nnc(Cc2ccc(F)cc2)o1 (centres undefined)	/	1.9	8	-16	-3	Arbovirus inh repeat=5
O=S(=O)(NCc1cn2ccccc2n1)c1ccccc1F	-2%	-3.4	/	/	-2
N#Cc1ccc(C23CC4(C2)[C@H](CN(CC2CCCCC2)[C@@H]4c2ccccc2)C3c2ccc(C(F)(F)F)cc2)cc1 (some centres undefined)	5%	7.6	/	/	/
CCC(C(=O)NC(C)(C)C)N(Cc1ccco1)C(=O)Cn1nnc(-c2ccc(F)cc2)n1 (centres undefined)	-1%	0.9	-3	/	5
CCC(C)(C)NC(=O)CN(C(=O)c1ccc(N2CCCC2)nc1)c1ccc(F)cc1	/	2.9	/	/	6

The listing continues:
SMILES	Mtb H37Rv	RecA splice inh	Arbovirus inh	YopH PTP inh	Mtb bLac sens	others
CCC1CN(C(=O)Nc2ccc(C)cc2)c2cc(C)ccc2O1 (centres undefined)	-3%	7.0	-6	/	0
CNC(=S)NC1CC2CCCC(C1)N2Cc1ccco1 (centres undefined)	3%	0.5	0	-17	-4
CCCN(CCC)CCCNC(=O)Cn1cnc2sc(C)c(S(=O)(=O)N3CCOCC3)c2c1=O	/	2.7	/	/	1
COC(=O)C1CCCN1C(=O)COc1ccc(Br)cc1Cl (centres undefined)	2%	-1.3	-7	-33	6
CCOC(=O)C1CCN(C(=O)COC(=O)c2cc([N+](=O)[O-])ccc2N2CCOCC2)CC1	/	1.4	/	/	-11
CCOC(=O)/C=C/C(=O)OCC(=O)NC(c1ccccc1)c1ccccc1	4%	2.0	4	-29	1
CN(C)c1ccc(CNC(=O)CCNS(=O)(=O)c2cc(Br)cnc2N)cc1	/	-4.0	/	/	5
COC(=O)C1=C(C(=O)OC)[C@@H]2N(C)c3ccccc3[C@@]23C[C@@H](C(=O)OC)N(C(=O)c2cccs2)C3=N1	2%	3.9	/	/	-8
COc1cccc(-c2csc(N3CCN(CC(=O)NNC(=O)c4ccco4)CC3)n2)c1	0%	-1.8	2	/	2
CC(C)(C)OC(=O)N1CCN(C(=O)Nc2ccc3c(c2)OCCO3)CC1	4%	1.0	-6	/	-4
COc1ccccc1/C=C/c1onc(C)c1S(=O)(=O)N1CCC(C(=O)NC(C)C)CC1	/	0.7	/	/	6
CC1=C(C(N)=O)S(=O)(=O)c2ccccc21	/	-2.3	/	/	1
O=C(CN1C(=O)C2C3C=CC(C3)C2C1=O)NC1CCCc2ccccc21 (centres undefined)	0%	1.3	6	-3	-8
COC(=O)[C@@H]1[C@@H](C#N)C2(c3ccccc3-c3ccccc32)N(c2ccc(Cl)cc2)N1C#N	2%	4.3	-38	-19	-6
CC(C)Cn1cc(C(=O)N2CCC3(CC2)OCCO3)c2c3ccccc3n(C)c2c1=O	3%	/	-9	-23	0
Nc1cc(Cl)c2nonc2c1[N+](=O)[O-]	?	/	-42	-17	101
N#Cc1ccccc1COc1cccc2c1CCCC2O (centres undefined)	/	0.7	/	/	5
CN(C(=O)c1ccc(NC(=O)c2ccco2)cc1)c1ccccc1	/	-0.9	/	/	-5
Cc1ccc(NC(=O)CN(C)C(=O)COC(=O)COc2ccc(C#N)cc2)cc1	/	-2.7	/	/	-1
CC1(C)CC(=O)C=C(Nc2ccccc2)C1	-8%	-2.4	/	/	-2
CCC(=O)N1N=C(c2ccc(C)o2)CC1c1ccc(N(C)C)cc1 (centres undefined)	2%	-0.7	1	/	-1
COC(=O)C1=C(C)OC(N)=C(C#N)C1c1c(C)nn(C)c1C (centres undefined)	1%	0.9	-1	-18	2
C=CCN=Cc1sc2ccc(OCC)cc2c1O	5%	-2.7	-9	-15	3
Cc1ccc(NC(=O)CSc2nnc(NC(=O)c3ccco3)s2)cc1	5%	/	-2	/	7
Cc1cc(NC(=O)CN2C(=O)[C@@H]3[C@H](C2=O)[C@@H]2C[C@H]3C(Br)C2Br)no1 (some centres undefined)	0%	5.5	/	/	-5
CCC(C)C(=O)Nc1ccc(OC)cc1OC (centres undefined)	-4%	/	3	9	-4
COC(=O)c1c(-c2ccc(Br)cc2)noc1N	18%	0.3	-2	-30	?
CC(C)COc1cccc(C(=O)NC(=S)NCc2cccnc2)c1	12%	4.1	9	-22	-4
COc1ccc(CCC(C)Nc2cccc(C)c2)cc1 (centres undefined)	16%	9.8	0	-16	/
CCN1CCN(c2oc(-c3ccc([N+](=O)[O-])cc3)nc2C#N)CC1	-6%	1.2	/	/	-5
CC(C)OC(=O)C(NC(=O)c1ccccc1)=C1CCCCC1	-2%	2.0	-7	2	3
CCOC(=O)C1CCCN(C(=O)c2cc3ncc(Br)cn3n2)C1 (centres undefined)	-4%	0.7	5	11	4
CCCC1(C(=O)OCC)NC(c2ccc(N(C)C)cc2)C2C(=O)N(c3ccc(F)cc3)C(=O)C21 (centres undefined)	7%	3.5	-12	2	10
CC(c1ccc(F)cc1)n1cc(C(=O)NCCN(C)C)nn1 (centres undefined)	-4%	1.4	-13	/	-13
CCN(CC)C(=O)Oc1ccc(NC(=O)N2CCOCC2)cc1	/	-0.6	/	/	-4
CN(C)NC(=O)c1csnc1-c1c(Cl)cccc1Cl	0%	-4.1	/	/	-9
CC1(C)CC(=O)C2=C(C1)Nc1ccccc1NC2c1ccccn1 (centres undefined)	-2%	-0.7	-1	-18	0	Arbovirus inh repeat=1
Cn1c(O)c(C(=N)COc2cccc(Cl)c2)c(=O)n(C)c1=O	-5%	-1.4	-2	-50	-16
CC(=O)Nc1ccc(S(=O)(=O)Nc2nnc(CC(C)(C)C)s2)cc1	6%	-2.9	13	/	0
[O-][N+]1=C2CCC/C(=N\O)C2=NC12CCCCC2	-5%	0.4	/	/	-9
CCOC(=O)c1c(C)[nH]c(C(=O)N/N=C/c2ccc(Br)cc2)c1C	/	1.8	0	-19	17
O=C(Cc1cccs1)Nc1cccc(-c2ccc3nncn3n2)c1	/	0.6	2	/	-3
COc1ccc(-n2c(C(C)n3nc(C)c([N+](=O)[O-])c3C)n[nH]c2=S)cc1 (centres undefined)	0%	1.3	3	-41	-2
O=S(=O)(NCC1CCCO1)c1ccc(S(=O)(=O)N(Cc2ccc(F)cc2)C2CCCCC2)cc1 (centres undefined)	-6%	6.7	/	-10	-3

Compound activity: PubChem BioAssay, several laboratories
